# Screening data deposited in PubChem BioAssay by ICCB-Longwood Screening Facility, Harvard Medical School.
# Ecoli growth: E. coli growth inhibition, primary screen, OD600 | Escherichia coli growth, 23 h; active compounds read low | OD600 absorbance (concentration not given with the values) | 330,000 compounds, 0.21% hits;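 active means OD600 absorbance below the run mean of sample wells minus 3.6 SD, in any replicate, cut at about 0.56 in these data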;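 further: stock transfer was 300 nL into about 60 µL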
# * marks the source's active call; other numbers are inactive results; & = joins results of further samples.
SMILES,Ecoli growth
Cc1ccc(-c2n[nH]c(=S)n2N=Cc2ccc(C(=O)O)cc2)cc1,0.679
Cc1cccc(-n2c(C)cc(C=NO)c2C)c1,0.715
CC(=NNC(=O)Cc1csc(N2CCOCC2)n1)c1ccc(Cl)c(Cl)c1,0.68
CN(C)C=Nc1c(C#N)cnn1-c1nc2ccccc2s1,0.758
CC(CC(=O)Nc1ccc(C)c(Cl)c1)=NNC(=O)Cc1cnc(N)s1,0.636
S=c1[nH]nc(COc2ccccc2)n1N=Cc1ccccc1Br,0.705
Cn1cc(C(=O)NN=C/C(Br)=C/c2ccccc2)ccc1=O,0.726
CC(=NNC(=O)c1cccc(S(=O)(=O)Nc2ccccc2Cl)c1)c1ccco1,0.679
Cc1ccc(C(=O)ON=C(c2nonc2N)N(C)C)cc1,0.758
COc1ccc(C=NNC(=O)CCN2CCN(c3ccccc3)CC2)c(OC)c1OC,0.682
O=C(CNC(=O)c1cccs1)NN=Cc1c(F)cccc1Cl,0.66
C=CCN1C(=O)C(Cc2ccc(F)cc2)SC1=NN=Cc1ccco1 (stereo unspecified),0.725
CCOC(=O)C1C2COc3ccc(Br)cc3C2N2C(=O)c3ccc(Cl)cc3NC(=O)[C@@]12C (stereo partly specified),0.709
COc1cccc(C=NNC(=O)C(C)n2nc(C)c([N+](=O)[O-])c2C)c1O (stereo unspecified),0.705
Cc1nnc(NN=Cc2ccc([N+](=O)[O-])cc2)n1N,0.672
COC(=O)c1nn(-c2ccccc2)c(Cl)c1C=NOCc1ccc(Cl)cc1Cl,0.697
Cc1ccc(C=NN2CCN(Cc3ccc(C)cc3)CC2)cc1,0.698
CC(=NNC(=O)COc1ccc(C(C)(C)C)cc1)c1ccc(OC(F)F)cc1,0.713
COC(=O)C1=C(C(=O)OC)[C@]2(C3CCCCNC(Cc4ccccc4)C(=O)N3Cc3ccccc3)C=CC1O2 (stereo partly specified),0.737&0.734
COc1ccccc1/C=C/C=NN1CCN(Cc2cccc3ccccc23)CC1,0.737
C#CCOCCOCCOCCNc1nc(N2CCN(C(=O)C(CCC(=O)O)n3cc(C(N)CCCCN)nn3)CC2)nc(N2CCN(C(=O)C(CCCCN)n3cc(C(N)CC(N)=O)nn3)CC2)n1 (stereo unspecified),0.709
CC(=NN=C1NC(=O)C(CC(=O)NCc2ccccc2)S1)C(C)C (stereo unspecified),0.675
COc1ccc(C=Nn2c(C)nnc2C)c(OC)c1OC,0.688
CCC(C=NNC(=O)C(=O)NN=CC(CC)CC)CC,0.694
O=C1CS/C(=N/N=Cc2ccn[nH]2)N1,0.664

# The final 7 entries of the section above lead into the next:
SMILES,Ecoli growth
COC(=O)C1=C(C(=O)OC)[C@]2(C3CCCCNC(Cc4ccccc4)C(=O)N3Cc3ccccc3)C=CC1O2 (stereo partly specified),0.737&0.734
COc1ccccc1/C=C/C=NN1CCN(Cc2cccc3ccccc23)CC1,0.737
C#CCOCCOCCOCCNc1nc(N2CCN(C(=O)C(CCC(=O)O)n3cc(C(N)CCCCN)nn3)CC2)nc(N2CCN(C(=O)C(CCCCN)n3cc(C(N)CC(N)=O)nn3)CC2)n1 (stereo unspecified),0.709
CC(=NN=C1NC(=O)C(CC(=O)NCc2ccccc2)S1)C(C)C (stereo unspecified),0.675
COc1ccc(C=Nn2c(C)nnc2C)c(OC)c1OC,0.688
CCC(C=NNC(=O)C(=O)NN=CC(CC)CC)CC,0.694
O=C1CS/C(=N/N=Cc2ccn[nH]2)N1,0.664
N#CC(=C(O)CN1C(=O)c2ccccc2C1=O)c1nc2ccccc2[nH]1,0.807
CCc1nc2ccccc2c(=O)n1N=Cc1ccc(OC)cc1,0.708
COc1ccc(C=NNC(=O)c2ccc(NC(=O)C3CCCCC3)cc2)cc1O,0.646
NC(=S)NN=C1CC(n2nnnc2-c2ccccc2)C2COC1O2 (stereo unspecified),0.705
O=C(NCCc1ccccc1)C(=O)NN=Cc1ccccc1C(F)(F)F,0.658
NC(Cc1nc(-c2ccc(Cl)cc2)cs1)=NO,0.588
Cc1nn(C(C)(C)C)c(C)c1C=NOC(=O)Nc1ccc(Cl)cc1,0.547
NC(=NS(=O)(=O)c1ccccc1)c1ccc([N+](=O)[O-])cc1,0.705
Oc1c(Br)cc(Br)cc1C=Nc1nc2c(s1)CCCC2,0.726
CCOc1cc(C(=O)NCCN2C(=O)SC(=Cc3cccnc3)C2=O)cc(OCC)c1OCC,0.689
O=C(O)c1cccc(NN=Cc2cn(-c3ccccc3)nc2-c2cccs2)c1,0.702
COc1ccccc1/C=C/C(=O)NCC(=O)NN=Cc1ccc(C(=O)O)cc1,0.722
Cc1cc(=O)[nH]c(NN=Cc2ccc(Cl)c([N+](=O)[O-])c2)n1,0.639
Cc1cc(C)n(CC(=O)NN=Cc2cccs2)n1,0.685
COc1ccc(CCN2C(=O)CSC2=NNC(=O)c2ccccc2F)cc1OC,0.71
CC(=NNC(=O)CNC(=O)c1ccc2c(c1)OCO2)c1ccc2c(c1)CCCC2,0.681
COc1ccc(C=NNS(C)(=O)=O)c(OC)c1,0.732
C/C(C=NNC(=O)Cn1c(C)nc2ccccc21)=C\c1ccccc1,0.693
COc1ccccc1C=Nn1nnnc1N,0.683
CC(C)Oc1ccccc1C=NNC(=O)C1CC1,0.66
O=C(NN=Cc1ccc(OC(=O)c2ccccc2Cl)cc1)c1ccc(O)cc1,0.699
CC(C)(C)c1ccc(C(=O)NN=C2C3CN4CCN(C3)CC2(c2ccccc2)C4)cc1,0.636
Cc1ccc(-c2n[nH]c(=S)n2N=Cc2ccco2)cc1,0.7
CN(C)S(=O)(=O)c1ccc(C(=O)NCC(=O)NN=Cc2ccccc2Cl)cc1,0.651
CCCCN1CC(Cc2ccccc2)C(CC(=O)Nc2ccccc2)C1=O (stereo unspecified),0.684
# (next part)
SMILES,Ecoli growth
COc1cc(C=NNc2cccc3cccnc23)cc(OC)c1O,0.703
CCOC(=O)C1C2COc3ccccc3C2N2C(=O)N(c3cccc(F)c3)C(=O)[C@]12C (stereo partly specified),0.66&0.668
Cc1ccc(C=Nn2c(C3CCCCC3)n[nH]c2=S)s1,0.677
CC(=NNC(=O)CC(C)C)c1ccc(Cl)c(Cl)c1,0.735
COc1ccc(S(=O)(=O)N(CC(=O)NN=Cc2ccc(C(=O)O)cc2)Cc2ccccc2)cc1OC,0.679
CCOC(=O)C1C2COc3ccc(C)cc3C2N2C(=O)c3cc(Cl)ccc3NC(=O)[C@@]12C (stereo partly specified),0.701
NC(Cc1ccc([N+](=O)[O-])cc1)=NOC(=O)CC1CCCCC1,0.75
CC(=NNC(=O)c1ccc2c(c1)OCO2)c1ccc(NC(=O)CCCC(=O)O)cc1,0.661
COc1cccc(C=NNC(=S)NCc2ccco2)c1OC,0.718
CNCC1Oc2c(NS(=O)(=O)c3cccs3)cccc2C(=O)N(C(C)CO)CC1C (stereo unspecified),0.696
CC1CN(C(C)CO)C(=O)Cc2cc(NC(=O)Cc3ccccc3)ccc2OC1CN(C)S(=O)(=O)c1cccs1 (stereo unspecified),0.704
O=C(CNC(=O)c1ccccc1Cl)NN=Cc1ccc2c(c1)OCO2,0.649
CC(CC(=O)Nc1cc(C)cc(C)c1)=NNC(=O)c1ccccn1,0.695
CC(CC(=O)Nc1ccc(N(C)C)cc1)=NNC(=O)c1ccc([N+](=O)[O-])cc1Cl,0.74
CC(=O)Nc1ccc(S(=O)(=O)Oc2ccc(C=NNC(=O)c3ccc(Cl)cc3)cc2)cc1,0.721
Cc1ccc(C)c(-c2cc(C(=O)NN=Cc3cccnc3)c3ccccc3n2)c1,0.67
CC(=NNC(=O)c1cc(-c2ccc(Br)s2)[nH]n1)c1ccncc1,0.632
COCc1c(C(=O)NN=Cc2c[nH]c3ccccc23)nnn1-c1nonc1N,0.732
O=C(NC(Cc1ccccc1)C(=O)O)c1ccncc1 (stereo unspecified),0.664
COc1cc(C=CC(=O)OCC(=O)NC(=O)NC(C)C)cc(OC)c1OC,0.72
O=C(NN=Cc1ccc2cccnc2c1)c1ccco1,0.663
COc1cccc(C=NNc2cc(C)nc(-c3ccccc3O)n2)c1O,0.671
COc1cc(C=NNC(=O)C(Cc2c[nH]c3ccccc23)NC(=O)OCC(C)C)cc([N+](=O)[O-])c1OCc1ccccc1 (stereo unspecified),0.648
CC(=NNC(=S)Nc1ccc(C)cc1)c1cccc(N)c1,0.645
COCc1cc(=O)[nH]c(N=C(N)Nc2cccc(Cl)c2)n1,0.691

# 2 entries from above, bar-delimited:
SMILES | Ecoli growth
CCOC(=O)C1C2COc3ccccc3C2N2C(=O)N(c3cccc(F)c3)C(=O)[C@]12C (stereo partly specified) | 0.66&0.668
Cc1ccc(C=Nn2c(C3CCCCC3)n[nH]c2=S)s1 | 0.677

# Back to the main list; the 5 compounds before the break are reprinted first.
SMILES,Ecoli growth
O=C(NN=Cc1ccc2cccnc2c1)c1ccco1,0.663
COc1cccc(C=NNc2cc(C)nc(-c3ccccc3O)n2)c1O,0.671
COc1cc(C=NNC(=O)C(Cc2c[nH]c3ccccc23)NC(=O)OCC(C)C)cc([N+](=O)[O-])c1OCc1ccccc1 (stereo unspecified),0.648
CC(=NNC(=S)Nc1ccc(C)cc1)c1cccc(N)c1,0.645
COCc1cc(=O)[nH]c(N=C(N)Nc2cccc(Cl)c2)n1,0.691
COc1cc(C=NNC(=S)Nc2cccc(Cl)c2C)ccc1OCC(=O)N1CC(C)OC(C)C1 (stereo unspecified),0.705
COc1ccc(C=NOCC(=O)NCC(C)C)c(OC)c1,0.698
C#CCOCCOCCOCCNc1nc(N2CCOCC2)nc(N2CCN(C(=O)C(CCCCN)n3cc(CCC(=O)O)nn3)CC2)n1 (stereo unspecified),0.642
O=C(CC1CC=CCC(Cc2ccc(F)cc2)C(=O)OCC(c2ccccc2)NC1=O)NCCO (stereo unspecified),0.72
NC(=S)NN=Cc1ccc(OC(=O)c2cccnc2)cc1,0.697
CCNC(=O)C1OC(n2cnc3c(N)nc(NCCc4ccc(CCC(=O)O)cc4)nc32)C(O)C1O (stereo unspecified),0.703
Cc1nn(-c2ccccc2)c(C)c1C=NN1CCN(c2ccc(Cl)cc2)CC1,0.806
CCN1C(=O)C2C(c3ccc(C)cc3)N3C(=O)N(c4cccc(Br)c4)C(=O)[C@@]3(C)C2C1=O (stereo partly specified),0.648
C=CCN1C(=O)C(=Nn2cnnc2)c2ccccc21,0.65
Cc1ccc(-c2c(C(=O)NN=Cc3cccnc3)nnn2-c2nonc2N)cc1,0.676
CC(=NNC(=O)CC1C(=O)NN=C1C)c1ccco1 (stereo unspecified),0.683
O=C(NN=CC1CC=CCC1)c1cc2ccccc2cc1O (stereo unspecified),0.555
CC(CCN1CCc2nc(-c3ccccc3)c(-c3ccccc3)cc2C1)=NOC(C)c1cn(C(CO)Cc2ccccc2)nn1 (stereo unspecified),0.648
CC(=NOCC(=O)Nc1cc(C)cc(C)c1)c1ccc2c(c1)OCCO2,0.672
O=C(O)c1ccccc1C=NNC(=S)NCc1ccccc1,0.676
CSc1nncn1N=Cc1ccc([N+](=O)[O-])cc1,0.634
CC(=NNC(=O)c1ccccc1)c1ccc(N2CCOCC2)cc1,0.739
Cc1ccc(NC(=S)NC(=NS(=O)(=O)c2ccccc2)c2ccccc2)cc1,0.747
CCn1c2ccccc2c2cc(C=NNC(=O)c3ccncc3)ccc21,0.705
CCC(=NN=C1SC(C)C(=O)N1Cc1ccco1)c1ccccc1 (stereo unspecified),0.671
CCN(CC)c1ccc(C=NNC(=O)c2nnn(-c3nonc3N)c2-c2ccc(C)cc2)cc1,0.708
ON=C1CCCCc2ccccc21,0.698
CCOC(=O)NN=Cc1ccc(-c2cc(Cl)ccc2Cl)o1,0.697
COc1cc(C=NNC(=O)C2CC(=O)N(c3ccc(C)cc3)C2)cc(OC)c1OC (stereo unspecified),0.704
Cc1cc(=O)[nH]c(NN=Cc2ccc([N+](=O)[O-])cc2)n1,0.684
# Additional records.
SMILES,Ecoli growth
Fc1ccccc1NC(=S)NN=Cc1ccccc1Br,0.72
Oc1ccc(C=NNc2ccc(C(F)(F)F)cn2)cc1,0.666
CCOC(=O)NC(=O)C(C#N)=NNc1ccc(F)cc1,0.642
Cc1ccc([N+](=O)[O-])cc1C=NNc1nnnn1-c1ccccc1,0.68
C[C@@]12C(=O)N(Cc3ccc(-c4ccccc4)cc3)CC(=O)N1C(C=Cc1ccccc1)C1C(=O)N(c3ccccc3)C(=O)C12 (stereo partly specified),0.717
O=c1c(=Cc2ccco2)sc2n1CN(c1cccc(Br)c1)CN=2,0.778
CCOC(=O)c1c(CC(C)C)csc1N=CC1=C(O)CCCC1=O,0.638
CSc1ccccc1NC(=O)CON=C(C)c1cc2ccccc2o1,0.653
CC(C)(C)c1cccc(C=NO)c1O,0.659
CC(=O)Oc1ccc(C(=O)C2C3C(=O)N(c4ccccc4)C(=O)C3C3C=CC=NN32)cc1 (stereo unspecified),0.673
CN1CCCC1CCNC(=O)c1c(-c2ccc3c(c2)OCO3)noc1-c1ccsc1 (stereo unspecified),0.707
CC(=NO)C(=O)NCCCNCCCN(C)C,0.736
CCCCN1C(=S)NCC1Cc1cccc2ccccc12 (stereo unspecified),0.66
CCOc1ccc(C=NNC(=O)C2CCCC2)c(OCC)c1,0.69

# Only part of the results is shown, so the mix of outcomes need not match the whole.
